# Vif A3G = inhibitors of Vif binding to APOBEC3G peptide, primary screen, biochemical, TR-FRET, GST-Vif 1-94, biotin-A3G peptide, dose response retest (AID 1117319) | TR-FRET GST-Vif / biotin-A3G peptide binding; higher % means a stronger effect; test concentration not given here; strong numbers were not always called active | inhibition, %, or IC50 in µM where a hit was titrated | actives 0.57% (n = 260,000);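 active = above the screen mean plus three standard deviations and confirmed in dose response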;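 also: Vif residues 1-94 fused to GST binding biotinylated APOBEC3G peptide 110-148; 0% = full assay without inhibitor and 100% = GST in place of GST-Vif; retest series ran down from 100 µM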
# HNF4A DNA FP = change in binding of human HNF4 alpha to DNA; P41235; actives 0.3% (n = 360,000); activity change, % at 10 µM; HNF4a-FITC DNA binding, fluorescence polarization, 1 h; in the data active = activity change above about 30%, passing the limit was not always enough;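 also: controls were the assay level and a saturating level of protein; the project sought stronger binding though the title names inhibitors; some compounds called inactive have numbers as strong as hits; positive values seem to mean higher polarization but the record does not say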
# Target sequence (P41235 whole entry, looked up): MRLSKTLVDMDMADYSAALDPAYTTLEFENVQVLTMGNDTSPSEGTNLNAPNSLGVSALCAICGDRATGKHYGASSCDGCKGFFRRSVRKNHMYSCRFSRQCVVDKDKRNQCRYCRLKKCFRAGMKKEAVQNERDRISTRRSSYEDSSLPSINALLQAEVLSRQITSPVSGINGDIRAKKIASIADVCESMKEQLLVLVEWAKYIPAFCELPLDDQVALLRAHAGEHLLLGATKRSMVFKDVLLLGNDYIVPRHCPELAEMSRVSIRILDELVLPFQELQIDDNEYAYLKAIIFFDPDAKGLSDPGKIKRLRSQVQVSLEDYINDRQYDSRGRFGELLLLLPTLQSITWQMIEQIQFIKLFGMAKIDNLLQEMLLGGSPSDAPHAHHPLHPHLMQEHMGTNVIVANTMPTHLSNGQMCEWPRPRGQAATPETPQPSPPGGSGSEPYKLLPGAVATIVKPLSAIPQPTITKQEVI
# Numbers without * were called inactive.
HNF4A DNA FP | Vif A3G | SMILES
3.2 | -4% | Cc1noc(C)c1NC(=O)Nc1ccc2c(c1)C(=O)N([C@H](C)CO)C[C@H](C)[C@@H](CN(C)S(=O)(=O)c1ccc(Cl)cc1)OCCCC[C@@H](C)O2
-0.2 | 1% | O=[N+]([O-])c1ccc(CN2CC(N3CCCC3)CS2(=O)=O)cc1 (stereo not given)
-4.7 | -3% | C[C@@H]1CN([C@@H](C)CO)C(=O)c2c(c3ccccc3n2C)-c2ccccc2CO[C@H]1CN(C)C(=O)C1CC1
0.5 | 0% | O=c1c2cc([N+](=O)[O-])ccc2sn1-c1ccccc1
0.3 | 4% | Cc1noc(C)c1CCC(=O)Nc1cc(C(=O)O)ccc1Cl
-2.5 | -5% | O=C1NC(Cc2ccccc2)c2nc3cc(F)c(F)cc3c(=O)n2-c2cc3ccccc3cc21 (stereo not given)
-40 | -5% | c1coc(-c2cnc3ccccc3n2)c1
4.3 | 2% | COc1ccc(-c2ccc(CN3C(CC(C)C)C(=O)N(Cc4cn(CC5CCCCC5)nn4)CCS3(=O)=O)cc2)cn1 (stereo not given)
3.5 | -1% | COc1ccccc1CN1CC(C(=O)NCCCCc2ccccn2)CCC1=O (stereo not given)
-0.3 | 0% | COc1cccc(OC)c1C(=O)NCc1ccco1
-4.6 | -1% | Cc1ccc(Cl)c(NC(=O)CN2C(=O)C(C)N(c3ccc(F)cc3)C2=O)c1Cl (stereo not given)
2.9 | -16% | O=C(Nc1c(Cl)ccc2nsnc12)c1ccc(Br)o1
1.8 | -3% | Cc1ccc(S(=O)(=O)N2C[C@H]3C(=O)C[C@@H](c4cccc(Cl)c4)N(S(=O)(=O)c4ccc(C)cc4)[C@H]3C[C@H]2c2ccc(Cl)cc2)cc1
2.1 | -6% | N#CCC(=O)Nc1ccc(C(=O)OCC(=O)Nc2cc(-c3ccccc3)nn2-c2ccccc2)cc1
-0.8 | -2% | O=C(OCCOc1ccccc1)c1cc(S(=O)(=O)N2CCOCC2)c(Cl)cc1Cl

# An excerpt from above in order of SMILES length, smallest number first:
HNF4A DNA FP | Vif A3G | SMILES
-0.2 | 1% | O=[N+]([O-])c1ccc(CN2CC(N3CCCC3)CS2(=O)=O)cc1 (stereo not given)
-2.5 | -5% | O=C1NC(Cc2ccccc2)c2nc3cc(F)c(F)cc3c(=O)n2-c2cc3ccccc3cc21 (stereo not given)
3.2 | -4% | Cc1noc(C)c1NC(=O)Nc1ccc2c(c1)C(=O)N([C@H](C)CO)C[C@H](C)[C@@H](CN(C)S(=O)(=O)c1ccc(Cl)cc1)OCCCC[C@@H](C)O2

# (further entries)
HNF4A DNA FP | Vif A3G | SMILES
0.0 | -8% | O=C1OCCC1=COCCCCOC=C1CCOC1=O
1.6 | 6% | Cn1c(SCC(=O)N2CCCC2)nc2c(c1=O)SCC2
-3.7 | -3% | Cn1c(=O)c2c(-c3ccccc3)n(-c3ccccc3)cc2n(C)c1=O
2.2 | 1% | O=C(NCC(=O)N1CCN(Cc2c(F)cccc2Cl)CC1)c1cccs1
1.8 | 1% | Cn1c(N)c(C(=O)N2CCN(c3ccccc3)CC2)c(=O)n(C)c1=O
0.9 | 4% | Cc1ccc(S(=O)(=O)NN=CC=CC=NNS(=O)(=O)c2ccc(C)cc2)cc1
1.5 | -1% | CN1OC[C@@H]2CN(S(=O)(=O)c3cccc4ccccc34)[C@H](c3ccc(-c4ccccc4)cc3)C[C@@H]21
-0.3 | -4% | COc1ccc(OC)c(NC(=O)CCNS(=O)(=O)c2ccc3c(c2)CC(C)N3C(C)=O)c1 (stereo not given)
12 | -4% | O=C(CN1CCCc2ccccc21)Nc1cccc(S(=O)(=O)N2CCCC2)c1
-1.6 | 4% | C[C@H]1CN([C@@H](C)CO)C(=O)c2cc(Br)cnc2O[C@H]1CN(C)C(=O)c1ccccn1
-4.2 | -21% | O=C1NC(Cc2ccccc2)c2nc3ccc(Cl)cc3c(=O)n2-c2cc3ccccc3cc21 (stereo not given)
-0.5 | 1% | CC1=C(C(=O)N2CCOCC2)CC(CC(=O)NC2CCCC2)C(=O)N1Cc1ccc(F)cc1 (stereo not given)
0.8 | 9% | CCCCCCN1C[C@@H](O)[C@H](n2cc(COC(=O)c3ccccc3)nn2)C[C@@H]1c1ccc(Cl)cc1
-0.5 | -3% | C[C@H]1CN([C@@H](C)CO)C(=O)c2cc(Br)cnc2O[C@@H]1CN(C)S(=O)(=O)c1cn(C)cn1
1.0 | -2% | CN(Cc1ccccc1)C(=O)C(=O)c1c[nH]c2ccccc12

# Among those listed so far, these contain two or more sulfur atoms.
HNF4A DNA FP | Vif A3G | SMILES
1.8 | -3% | Cc1ccc(S(=O)(=O)N2C[C@H]3C(=O)C[C@@H](c4cccc(Cl)c4)N(S(=O)(=O)c4ccc(C)cc4)[C@H]3C[C@H]2c2ccc(Cl)cc2)cc1
1.6 | 6% | Cn1c(SCC(=O)N2CCCC2)nc2c(c1=O)SCC2
0.9 | 4% | Cc1ccc(S(=O)(=O)NN=CC=CC=NNS(=O)(=O)c2ccc(C)cc2)cc1

# Going on with the list.
HNF4A DNA FP | Vif A3G | SMILES
1.7 | -3% | CC(=O)NC1CC2CCCC(C1)N2C(=O)Nc1c(C)cccc1C (stereo not given)
2.7 | -5% | CCOC(=O)CCCCCC(=O)Nc1ccc2c(c1)C(=O)N([C@@H](C)CO)C[C@H](C)[C@H](CN(C)S(=O)(=O)c1ccc(OC)cc1)OCCCC[C@H](C)O2
-1.1 | -4% | Cc1nc(N/N=C/c2cccnc2)cc(N2CCOCC2)n1
-3.4 | -6% | Cc1nn(C)c2c1NC(=O)CS2
1.4 | -1% | Cc1c(Cc2ccccc2)[n+](=O)c2ccccc2n1[O-]
0.8 | 0% | COc1ccc(CN(C)C(=O)C2CSC3(C)CCC(=O)N23)c(OC)c1 (stereo not given)
1.0 | -2% | CC(=O)N1CCN(S(=O)(=O)c2cccc(C(=O)N3CCN(S(=O)(=O)c4c(C)c(C)cc(C)c4C)CC3)c2)CC1
-0.2 | 7% | CSc1ncccc1C(=O)NNC(=O)c1csc(N2CCOCC2)n1
4.4 | -2% | CCN(CC)S(=O)(=O)c1ccc(O)c(C(=O)OCC(=O)N2CCCc3ccccc32)c1
-0.7 | -3% | CCN(CC)C(=O)c1ncn2c1c(=O)[nH]c1ccccc12
5.7 | -7% | O=C(c1ccccc1F)N1N=C(C(F)(F)F)CC1(O)c1ccccc1 (stereo not given)
-5.0 | -4% | C[C@@H]1CN([C@H](C)CO)C(=O)c2cc(Br)cnc2O[C@H]1CN(C)C(=O)Nc1ccc2c(c1)OCO2
0.1 | 5% | C[C@@H]1CN([C@H](C)CO)C(=O)CCCn2nncc2CO[C@@H]1CN(C)S(=O)(=O)c1ccc2ccccc2c1
7.7 | -2% | N#CCCn1cc(C(=O)CN2C(=O)NC3(CCc4ccccc43)C2=O)c2ccccc21 (stereo not given)
-3.9 | -6% | Cc1ccc(S(=O)(=O)N(C)c2ccc(C(=O)NCC(c3ccccc3)N3CCCC3)cc2)cc1 (stereo not given)

# 3 compounds out of the list above, ordered by the number in Vif A3G, rising.
canonical_smiles,HNF4A DNA FP,Vif A3G
Cc1nn(C)c2c1NC(=O)CS2,-3.4,-6%
C[C@@H]1CN([C@H](C)CO)C(=O)c2cc(Br)cnc2O[C@H]1CN(C)C(=O)Nc1ccc2c(c1)OCO2,-5.0,-4%
CC(=O)NC1CC2CCCC(C1)N2C(=O)Nc1c(C)cccc1C (stereo not given),1.7,-3%

# (list continues)
HNF4A DNA FP | Vif A3G | SMILES
-1.2 | -1% | O=P1(O)CC2=C(CC=CC2)C1
2.3 | -5% | O=C(CSc1nnc(-c2ccncc2)n1C1CC1)c1cccs1
-0.8 | 2% | CCN(CC)C(=O)C1=C(C)N(Cc2ccc(OC)cc2)C(=O)C(CC(=O)NCc2cccs2)C1 (stereo not given)
1.1 | -2% | COc1cccc(CN2C(=NC(=O)C3CCCO3)SC3CS(=O)(=O)CC32)c1 (stereo not given)
-2.1 | -1% | CCC(Sc1nc2ccsc2c(=O)n1CCC(=O)O)C(=O)Nc1ccc(Cl)cc1 (stereo not given)
1.1 | -4% | Cc1cc(C)n(-c2ccc(C(=O)N3CCN(S(=O)(=O)c4ccc(Br)cc4Cl)CC3)cc2)n1
2.3 | 0% | Cc1ccc(S(=O)(=O)N(C)C[C@H]2OCCCC[C@@H](C)Oc3ccc(NC(=O)Cc4ccccc4)cc3C(=O)N([C@H](C)CO)C[C@@H]2C)cc1
-1.5 | -1% | CCCCn1c(NCc2cc(C)ccc2O)nc2ccccc21
9.7 | -1% | C[C@H](CO)N1C[C@H](C)[C@H](CN(C)C(=O)c2ccccc2)Oc2cc(Br)ccc2S1(=O)=O
1.9 | 7% | Cc1ccc(NC(=O)C(C)Sc2nnc3n2CCCCC3)cc1S(=O)(=O)N1CCOCC1 (stereo not given)
3.0 | -4% | O=C(CCc1c[nH]c2ccccc12)OCC(=O)c1ccccc1
91 | -5% | Cc1ccccc1CSCC1Nc2ccc(C(=O)NCCc3ccccc3)cc2NC1=O (stereo not given)
-6.6 | -4% | COc1ccccc1-c1ccc2c(c1)O[C@@H](CN(C)C(=O)c1ccncc1)[C@H](C)CN([C@@H](C)CO)S2(=O)=O
3.0 | -5% | COc1ccc(C)cc1Nc1ncnc2c1nnn2Cc1ccccc1Cl
2.7 | 3% | COc1cc(C(=O)NN=Cc2ccc(N(C)C)cc2)cc(OC)c1OC
2.8 | 1% | COc1ccc([C@H]2N[C@]3(CCCN(Cc4ccc(Cl)cc4)C3=O)[C@H]3C(=O)N(Cc4ccccc4)C(=O)[C@@H]23)cc1
-0.4 | -3% | COCCNC(=O)CSc1nc(N)c(NC(=O)c2ccco2)c(=O)[nH]1
-2.4 | -2% | COc1ccc(CN2C(=O)C(CC(=O)NC3CCCC3)CC(C(=O)N(C)C)=C2C)cc1 (stereo not given)
-0.3 | 10% | CCCC(=O)NC(c1cccc([N+](=O)[O-])c1)c1ccc2cccnc2c1O (stereo not given)
1.3 | 0% | O=C(c1ccc2c(c1)OCCO2)N1CCN(c2ccc(C(F)(F)F)cn2)CC1
-2.9 | 1% | O=C(OCc1ccccc1)N1CCC2CC1c1ccc(Cl)cc12 (stereo not given)
2.5 | 1% | COc1cccc(NC(=S)NC2CC(C)CC(C)(C)C2)c1 (stereo not given)
0.2 | 10% | CC(=O)N1CCN(S(=O)(=O)c2cccc(C(=O)NC3CCCC(C)C3C)c2)CC1 (stereo not given)
3.9 | -4% | CSCCC(NC(=O)c1ccccc1Cl)C(=O)NCCOc1ccc(C)cc1 (stereo not given)
0.5 | -5% | COc1cccc(-c2cc3nc(C)c(C)c(N4CCN(C(=O)c5ccoc5)CC4)n3n2)c1
-1.9 | 2% | COc1ccc(CN(C)CCCn2cnc3c(OC)ncnc32)cc1OC
2.4 | 2% | C[C@@H]1CN([C@H](C)CO)C(=O)CCCn2nncc2CO[C@H]1CN(C)C(=O)Nc1ccnc(N2CCOCC2)c1
12 | -2% | COc1ccc(C)cc1-n1c(SCC(=O)N2CCOCC2)nc2ccccc2c1=O
2.6 | -4% | C[C@@H]1CN([C@H](C)CO)C(=O)CCCn2nncc2CO[C@H]1CN(C)Cc1cccc(O)c1
2.6 | -8% | COc1ccc(S(=O)(=O)N(C)C[C@@H]2OCc3cn(nn3)CCCC(=O)N([C@@H](C)CO)C[C@H]2C)cc1
-10 | -2% | COc1ccccc1CN(C)C[C@H]1OCc2cnnn2CCCC(=O)N([C@H](C)CO)C[C@@H]1C
0.7 | -3% | Cc1cc(NC(=O)c2ccc(OCC3CCCO3)cc2)ccc1Br (stereo not given)
10.0 | 2% | CC(C)CCN1CCC[C@]2(N[C@H](c3ccccc3)[C@@H]3C(=O)N(Cc4ccccc4)C(=O)[C@@H]32)C1=O
5.1 | 3% | COC1OC2COC(c3ccccc3)OC2C2OC(c3ccccc3)OC12 (stereo not given)
-3.0 | -5% | CC(C)COC(=O)N(C)C[C@H]1OCc2cn(nn2)CCCC(=O)N([C@H](C)CO)C[C@@H]1C
-0.4 | -10% | O=c1c2ccccc2c2ccccc2c(=O)n1Nc1ccccc1
-19 | 28µM* | O=C1CC(SC(=S)C2CCCC2=O)C(=O)N1 (stereo not given)
-1.1 | 7% | COc1ccc(OC(=O)OCc2ccccc2)cc1
-0.5 | 3% | Nc1nc(SCc2ccccc2)sc1C(=O)N1CCCCC1
0.2 | 1% | C[C@@H]1CN([C@H](C)CO)C(=O)CCCn2nncc2CO[C@@H]1CN(C)S(=O)(=O)c1cn(C)cn1
-0.2 | -4% | CCCCCC(=O)N1C[C@@H](n2cc(COC(=O)c3ccccc3)nn2)[C@H](O)C[C@@H]1c1ccc(C)cc1
-3.1 | -5% | O=C(Nc1ccc2c(c1)OCCO2)c1ccccc1Cl
31 | 6% | COC(=O)C1C2CC3c4[nH]c5cc(OC)ccc5c4CCN3CC2CC(OC2CCCCO2)C1OC (stereo not given)
3.1 | 8% | CC1=C(C(=O)N(C)C)CC(CC(=O)NCCc2ccccn2)C(=O)N1Cc1ccc(F)cc1 (stereo not given)
1.2 | -4% | CC1CCCCC12NC(=O)N(CC(=O)Nc1ccc3c(c1)OCO3)C2=O (stereo not given)
14 | 8% | CCCCN1C(=O)C(CC(=O)NC(c2ccccc2)c2ccccc2)CC(C(=O)N2CCOCC2)=C1C (stereo not given)
5.0 | -1% | C[C@H](CO)N1C[C@H](C)[C@H](CN(C)S(=O)(=O)c2ccc(-n3cccn3)cc2)OCc2cnnn2CCCC1=O
5.8 | 3% | CCCC#Cc1cnc2c(c1)C(=O)N([C@H](C)CO)C[C@@H](C)[C@H](CN(C)S(=O)(=O)c1cccc(OC)c1)O2
2.0 | -9% | COC(=O)c1ccc(CNC(=O)c2ccc(OC)c(S(=O)(=O)NC3CC3)c2)cc1

# Not all compounds are listed, so the mix of outcomes need not match the whole.
